# MbtI inh: inhibitors of Mycobacterium tuberculosis siderophore enzyme MbtI; 100,000 compounds, 0.89% hits; inhibition, %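 (about 17 µg/mL by stock and volumes)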; purified MbtI enzyme, fluorescence intensity read-out;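 active = above 50% in both replicates, above 80% if mildly self-fluorescent; inactive = the rest, strongly fluorescent compounds included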;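 note: 0% = mean of negative and 100% = mean of positive controls; one replicate is shown; some compounds called inactive have numbers as strong as hits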
# Target sequence (P9WFX0 whole entry, looked up): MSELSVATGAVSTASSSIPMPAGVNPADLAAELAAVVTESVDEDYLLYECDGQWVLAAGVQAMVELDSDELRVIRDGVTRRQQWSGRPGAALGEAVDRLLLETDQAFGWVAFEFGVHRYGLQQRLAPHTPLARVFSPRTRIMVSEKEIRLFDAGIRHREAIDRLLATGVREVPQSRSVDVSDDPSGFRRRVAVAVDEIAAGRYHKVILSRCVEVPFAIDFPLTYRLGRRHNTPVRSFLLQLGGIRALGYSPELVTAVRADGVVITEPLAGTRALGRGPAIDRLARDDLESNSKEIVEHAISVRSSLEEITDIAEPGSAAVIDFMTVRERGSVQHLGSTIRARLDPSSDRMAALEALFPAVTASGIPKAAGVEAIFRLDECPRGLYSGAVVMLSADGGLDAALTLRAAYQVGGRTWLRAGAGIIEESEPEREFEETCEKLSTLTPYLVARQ
# Polio RdRp inh: poliovirus RNA polymerase inhibition. P03300. poliovirus polymerase elongation, fluorescence polarization; active compounds read low. % elongation, % (compound at 16.7 µg/mL). 150,000 compounds, 0.66% hits; in the data active = % elongation below about 90%; note: some results filed as inactive read as strong as hits
# Mtb MenB inh: Mtb MenB enzyme inhibition. P9WNP5. MenB enzyme assay, absorbance read-out; some hits fall short of the stated cut. inhibition, %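 (about 12 µg/mL by stock and volumes)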. 100,000 compounds, 0.43% hits;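 active = mean of two replicates above 30%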;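 note: 0% = no compound and 100% = wells with inactive enzyme; the first replicate is given; strong numbers were not always called active; inactives centre near -10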
# Target sequence (P9WNP5 whole entry, looked up): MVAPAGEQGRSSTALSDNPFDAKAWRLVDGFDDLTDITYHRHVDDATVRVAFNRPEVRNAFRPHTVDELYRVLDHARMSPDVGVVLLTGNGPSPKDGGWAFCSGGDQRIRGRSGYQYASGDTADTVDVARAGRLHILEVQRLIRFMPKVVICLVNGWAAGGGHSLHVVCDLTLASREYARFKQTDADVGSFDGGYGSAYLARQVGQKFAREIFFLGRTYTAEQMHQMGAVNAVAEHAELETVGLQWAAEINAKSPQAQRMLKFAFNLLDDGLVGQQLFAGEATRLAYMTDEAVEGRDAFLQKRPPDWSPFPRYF
# Polio RdRp inh intensity: recorded beside Polio RdRp inh, whose call it bears; % elongation; measured here: total intensity read-out; formula for this scale not given here;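 total fluorescence in place of polarization; lower means less elongation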
# Starred values were filed as active, the others as inactive; / = no result given; & = joins results of further samples. An unsorted share of the library, and some 1.8% of all compounds hit somewhere here.
SMILES,MbtI inh,Polio RdRp inh,Polio RdRp inh intensity,Mtb MenB inh
O=C(OCc1c(Cl)cccc1Cl)c1ccc2ccccc2n1,-7,103,108,/
COC(=O)C1=CN(C)C=C(C(=O)OC)C1c1ccc2c(c1)OCO2,-280,100,100,-18
NS(=O)(=O)c1ccc(-n2ncc(Cl)c(Cl)c2=O)cc1,3,86*,92*,-7
O=c1c2ccccc2nc(-c2ccccc2)n1Nc1ccc(F)cc1F,/,97,105,-9
CC(=O)N1CCN(c2ccc(S(=O)(=O)N3CCCCC3)cn2)CC1,-13,100,110,8
CCCCCCCCCC(=O)N[C@H](CN1CCOCC1)[C@H](O)c1ccccc1,-2,99&100,103&102,3
CC(=O)N1CCC(N(CCCN2CCC(C)CC2)C(=O)Nc2ccccc2C(F)(F)F)CC1,-9,105,103,-33
CC(C)N(C(=O)Cn1ncc2c(=O)oc3ccccc3c21)C1CCCCC1,3,101,104,-7
CN1CCN(C(=O)C(NC(=O)c2ccc(Cl)cc2)C23CC4CC(CC(C4)C2)C3)CC1 (stereo not drawn),-1,100,100,-4
O=C(c1ccccc1)c1ccc(N=Cc2ccccc2O)cc1,/,102,100,-4
CCN(CC)CC(O)Cn1c(-c2ccccc2Cl)nc2ccccc21 (stereo not drawn),-9,101,102,-12
COc1ccc(NC(=O)OC(C)C)cc1,-2,102,101,-1
Clc1cccc(Cc2nnc(-c3ccccc3)o2)c1,-4,106,105,-36
O=C(O)c1ccccc1N(Cc1ccc(Br)cc1)C(=O)c1ccco1,7,100,103,-3
O=C(CC1C(=O)OCC2CCCCN21)Nc1ccc(I)cc1 (stereo not drawn),-14,99,97,10
CCC1CCCCN1C(=O)c1cc(-c2cccc(OC)c2)no1 (stereo not drawn),-28,106,104,-13
Cc1cc(C)nc(SCCC(=O)N(C)C)n1,11,104,103,20
COC(=O)c1cc2nc(-c3ccc(F)cc3)cc(C(F)(F)F)n2n1,/,87*,83*,-15
Cc1ccc(C)c(C(=O)NC(C)CN)c1 (stereo not drawn),-12,106,107,/
Oc1[nH]c2ccccc2c1C=NCCN1CCOCC1,8,100,102,-16
COc1cc(C(=O)Nc2ccccc2C(=O)N2CCN(C)CC2)cc(OC)c1OC,-3,104,102,-31
CCOC(=O)/C=C(\C)Sc1cc(=O)oc2ccccc12,-4,84*,81*,0
NC(=O)N(N)c1nc(N2CCCCC2)nc(N2CCCCC2)n1,/,102,103,0
CCCOc1ccc2c3c(c(=O)oc2c1C)CCC3,-28,104,108,/
Nc1nsnc1C(=O)NCCO,-52,101,98,-11
CC1CCN(C2=NC(Cc3ccccc3)C(=O)N2C2CCCCC2)CC1 (stereo not drawn),2,102,101,-37
NC(=O)COC(=O)c1ccccc1Oc1ccccc1,-2,103,109,/
Nc1cc(C(=O)N2CCCC2)cc(C(=O)N2CCCC2)c1,-55,99,100,-7
CN1/C(=C\C=N\Nc2ccccn2)C(C)(C)c2ccccc21,-1,103,108,-17
C=CCn1nnnc1SCc1cccc(CSc2nnnn2CC=C)c1,/,104,109,-21
CCNC(=S)Nc1ccc(OC)cc1,/,102,108,0
CCOC(=O)C1CCN(C(=O)CCS(=O)(=O)Cc2ccccc2)CC1,10,102,103,-27
CC1=C(C(=O)Nc2ccc(Br)cc2F)C2C(=O)N(C)C=NC2O1 (stereo not drawn),-3,100,104,13
CN1C(=O)/C(=C2/SC(=S)N(c3cccc(O)c3)C2=O)c2ccccc21,-12,100,100,-16
CCOC(=O)c1ccc(NC(=O)N2CC(C)Oc3ccccc32)cc1 (stereo not drawn),-9,103,104,-24
NS(=O)(=O)c1ccc(CCNC(=O)CCCn2c(SCC(=O)Nc3nccs3)nc3ccsc3c2=O)cc1,-3,105,102,-23
CCC(=O)OC1(Cc2ccc(CC)cc2)CC(C)N(C)CC1C (stereo not drawn),/,103,109,-2
CCN(CC)S(=O)(=O)c1ccc2c3c(cccc13)C(=O)N2C(=O)c1cccnc1,-10,/,/,-11
CNC(=O)Nc1ccc2snnc2c1,70,102,105,11
S=c1[nH]n(-c2ccccc2)c(=S)s1,45,101,95,/
Cc1nc2sccn2c1C(=O)c1ccc(NC(=O)c2ccc(F)cc2)cc1,5,98,97,/
CC(=NC(=S)c1ccc(Cl)cc1)N(C)C,40,103,103,7
OCCNc1nc2ccc(Cl)cc2[nH]1,1,100,103,-23
COc1ccccc1N1CCN(CC(O)COc2ccc3c(C)cc(=O)oc3c2)CC1 (stereo not drawn),-12,101,108,4
COCCn1c(SCC(=O)N2CCc3ccccc32)nc2c(c1=O)SC(C)C2 (stereo not drawn),7,101,101,6
Cc1ccnc(NC(=O)Cn2ncc3c2-c2ccccc2OC3)c1,-1,99,99,-7
CNc1ccccc1C(=O)Nc1cccc(OC)c1,91,106,109,-24
O=S1(=O)CCC(NCc2cc(Cl)c3c(c2)OCCCO3)C1 (stereo not drawn),-3,99,94,1
CC(CC1CC(C)(C)OC1=O)C(=O)Nc1nncs1 (stereo not drawn),-5,100,93,-24
c1ccc2c3c([nH]c2c1)CCCC3,-10,99,99,-24

# Brought forward from above: 3 compounds; new compounds follow.
SMILES,MbtI inh,Polio RdRp inh,Polio RdRp inh intensity,Mtb MenB inh
O=S1(=O)CCC(NCc2cc(Cl)c3c(c2)OCCCO3)C1 (stereo not drawn),-3,99,94,1
CC(CC1CC(C)(C)OC1=O)C(=O)Nc1nncs1 (stereo not drawn),-5,100,93,-24
c1ccc2c3c([nH]c2c1)CCCC3,-10,99,99,-24
Cn1c(Sc2cnn(-c3ccccc3)c(=O)c2Br)nnc1-c1ccccc1,/,99,98,-23
O=C(O)c1cnn2c(C(F)F)cc(C3CC3)nc12,3,100,102,24
CC(C)OC(=O)CSc1ncnc2scc(-c3ccccc3)c12,/,104,109,-28
c1ccc2c(c1)OCC(CNCC1COc3ccccc3O1)O2 (stereo not drawn),-8,104,106,-14
CCOc1ccc(NC(=O)CSc2oc(-c3ccccc3)nc2S(=O)(=O)c2ccccc2)cc1,4,102,105,-34
Cc1ccc(C)c(N2CCN(C(=O)c3ccc(N4CCCC4=O)cc3)CC2)c1,-7,104,106,-16
N#CCc1ccc(NC(=O)CCc2nc3cccnc3n2Cc2cccs2)cc1,8,99,122,-22
Cc1ccc(C(=O)COC(=O)COc2ccccc2O)cc1C,0,108,110,-8
CC(C)/C=C1\CC/C(=C\c2ccc(C(F)(F)F)cc2)C1=O,14,98,96,-11
CC1(C)CCCC2(C)C1CCC(C)(O)C2CCO (stereo not drawn),-1,103,102,-3
CCc1ccccc1N(C)C(=O)Cc1c(C(=O)O)[nH]c2ccccc12,5,101,98,6
O=C(NCc1ccccc1)C1CCCN(c2nc3ccsc3c(=O)s2)C1 (stereo not drawn),11,98,103,1
CCn1c(CSc2nc(C)c(C)n2C2CCCC2)nc2cc(S(=O)(=O)N(C)C)ccc21,-7,112,110,-35
O=C(O)Cn1c2c(c3ccccc31)CSc1ccc(Cl)cc1-2,96*,99,102,-16
NC(=O)c1cc(S(=O)(=O)NCCN2CCc3ccccc3C2)cs1,-18,98,103,-18
CC1=NN(C(=O)CCc2ccccc2)C(O)(c2ccccc2)C1 (stereo not drawn),-8,103,106,-36
CC1CCN(c2cc(N3CCN(C(=O)c4ccco4)CC3)c3c4c(onc24)-c2ccccc2C3=O)CC1,-2,75,195,-3
Cc1nc2c(C)cccc2c2c1CCN2c1ccccc1F,19,100,101,-4
CNCC(O)c1cccc(O)c1 (stereo not drawn),/,104,96,-6
CCCC12CN(C(=O)CC(C)C)CC(CCC)(CN(C(=O)CC(C)C)C1)C2=O,-9,104,101,5
NC(=O)C1CCN(C(=O)CCSCc2ccccc2)CC1,5,100,101,15
O=C1c2ccccc2C(=O)N1CSc1ncnc2c1cnn2-c1ccccc1,-10,101,101,2
Cc1cc(C)n2nc(SCC(=O)N3c4ccccc4CC3C)nc2n1 (stereo not drawn),11,103,101,-32
CCOC1(C)OC2CCC(CC)OC2O1 (stereo not drawn),/,105,100,7
N#Cc1sccc1CS(=O)(=O)c1ccc(Cl)cc1,16,100,102,-2
Cc1c(Cl)ccc2sc(N(Cc3ccccn3)C(=O)c3ccco3)nc12,5,100,101,12
Cc1ccc(SCc2cc(=O)[nH]c(/N=C(/N)Nc3ccccc3)n2)cc1,7,103,102,-13
O=C(CSc1nnc(CNc2ccc(F)cc2)o1)N1CCOCC1,-6,101,102,-22
CCOC(=O)c1cnn(-c2ncnc3sc(-c4ccccc4)cc23)c1N,-9,107,101,-21
CCOC(=O)C1=C(O)CSC1=NC(=O)c1ccc(OC)cc1,34,113,120,47
CC(=O)Oc1ccc(S(=O)(=O)c2ccc(OC(C)=O)cc2)cc1,23,104,111,7
CN1CCc2c(C#N)c(N)n(N)c(=S)c2C1,87,52,187,-6
CCOC(=O)N1CCN(C(=O)CN(c2ccc(C)cc2)S(=O)(=O)c2cc(C)ccc2OC)CC1,4,101,100,-6
c1ccc(-c2cc3ncnc(N4CCSCC4)c3s2)cc1,-12,99,99,-7
O=C(C1CC1)N1CCN=C1SCc1cccc(C(F)(F)F)c1,-2,101,106,5
CCNc1nc2c(c(=O)n(Cc3ccccc3)c(=O)n2C)n1Cc1ccccc1,5,103,100,-61
CCOC(=O)N/N=C1\CCS(=O)(=O)c2ccc(Cl)cc21,1,102,96,11
Cc1ccc(N2C(=O)C(CC(=O)Nc3cccc(F)c3)N(C3CC3)C2=O)cc1 (stereo not drawn),17,101,103,-17
O=C(O)C1C2CCC(C2)C1C(=O)Nc1ccc(Cc2ccncc2)cc1 (stereo not drawn),4,101,98,-11
Cc1ccc(CC2SC(N3CCN(c4ccccc4)CC3)=NC2=O)cc1 (stereo not drawn),/,106,112,-9

# Taken from above:
# CCOC(=O)N/N=C1\CCS(=O)(=O)c2ccc(Cl)cc21 in Polio RdRp inh = 102
# O=C(C1CC1)N1CCN=C1SCc1cccc(C(F)(F)F)c1 in Mtb MenB inh = 5

# New compounds follow:
SMILES,MbtI inh,Polio RdRp inh,Polio RdRp inh intensity,Mtb MenB inh
C=CCSc1nc2ccccc2c(=O)n1CC=C,15,100,102,-3
COC(=O)c1ccccc1NC(=O)c1cccnc1,/,96,95,-2
Cc1cc(C(=O)CN(Cc2ccco2)C2CCS(=O)(=O)C2)c(C)n1Cc1cccs1 (stereo not drawn),-2,104,109,-16
CNC(=O)c1ccc2c(c1)CCCN2S(C)(=O)=O,-7,101,104,5
COc1cccc(OCCSc2nc(-c3ccccc3)cc(=O)[nH]2)c1,17,103,100,-24
C=C(C)CN=c1scc(-c2cc3ccccc3o2)n1/N=C/c1cccc(OC)c1O,-12,108,111,-34
Cc1nnsc1C(=O)Nc1ccccn1,3,102,103,-2
CCn1nc(C)cc1Nc1ccccc1,-15,103,102,/
Cc1cc(Cl)nc2ccccc12,0,102,104,14
CCOC(=O)C1=C(C)N=C2SCCC(=O)N2C1c1ccccc1 (stereo not drawn),-4,99,102,-14
CCc1nc(SCC(=O)N2CCCc3ccccc32)c2c(=O)n(C)c(=O)n(C)c2n1,-19,101,103,-10
CCOC(=O)c1ccc(N2C(=O)CC(NCCc3ccc(S(N)(=O)=O)cc3)C2=O)cc1 (stereo not drawn),0,107,100,-23
CCc1ccc(C2NCc3ccccc3-n3cccc32)cc1 (stereo not drawn),/,106,109,0
CC(=O)c1cc2c(cc1O)OC(C)(C)C=C2,-11,98,102,0
CCCCNC(=O)Oc1ccc(C2=NCCS2)cc1,2,102,102,6
CC(SC(=S)N1CCCCCC1)C(=O)O (stereo not drawn),-20,102,103,-38
CC(C)C1C(=O)Nc2ccc(S(=O)(=O)NC3CCCC3)cc21 (stereo not drawn),-6,98,104,16
CN(C)c1ccc(N/C=C2/CCCC2=O)cc1,-68,104,108,-69
Cc1[nH]c2ccccc2c1CCN1C(=O)c2ccccc2C1=O,/,104,109,-16
Cc1ccc(OCC(=O)Nc2ccccc2C(=O)N(C)C)cc1,-19,102,101,-5
NC(=O)C1CCN(c2nc(-c3ccccc3)nc3ccccc23)CC1,-7,105,110,-6
OCCNc1nc2ccccc2n1CN1CCN(c2ccccc2F)CC1,-5,105,106,5
COC(=O)Cc1nc2ccccc2[nH]1,-175,101,113,/
CN(CC(=O)Nc1ccc(F)cc1)C(=O)COc1ncnc2c1cnn2-c1ccccc1,24,103,109,0
O=C(Nc1cc(Cl)cc(Cl)c1)C1=COCCO1,2,101,102,4
Cc1ccc(CSc2ncc(C(F)(F)F)cc2Cl)cc1,1,104,107,-7
CC(C)(C)C(=O)/C(C#N)=C/c1ccc(N2CCOCC2)cc1,-4,123,128,-13
CCNC(=O)c1c(C)c(C(=O)OCC)n(CC)c1C,-6,100,101,-56
O=c1ccsn1Cc1ccccc1,93*,97,94,-116
Cn1cc(/C=C(/C#N)c2ccc(C(=O)O)cc2)c2ccccc21,9,100,103,-125

# Pulled by compound from the entries so far, five records:
SMILES,MbtI inh,Polio RdRp inh,Polio RdRp inh intensity,Mtb MenB inh
Cc1ccc(CSc2ncc(C(F)(F)F)cc2Cl)cc1,1,104,107,-7
COC(=O)Cc1nc2ccccc2[nH]1,-175,101,113,/
NC(=O)C1CCN(c2nc(-c3ccccc3)nc3ccccc23)CC1,-7,105,110,-6
CN(CC(=O)Nc1ccc(F)cc1)C(=O)COc1ncnc2c1cnn2-c1ccccc1,24,103,109,0
O=c1ccsn1Cc1ccccc1,93*,97,94,-116

# High-throughput results (PubChem)
